High-throughput results (PubChem)
Ecoli growth: inhibitors of Escherichia coli growth | AID 1053175 | 0.21% of 330,000 active | OD600 absorbance (no concentration beside the values) | OD600, 23 h; stronger effect = lower value;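 active = OD600 absorbance below the run mean of sample wells minus 3.6 SD, in any replicate, cut at about 0.56 in these data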;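 also: stock transfer was 300 nL into about 60 µL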
Ecoli rRNA inh: selective bacterial rRNA inhibition in E. coli; E. coli WT GFP vs humanized-ribosome RFP mutants, fluorescence, 24 h; stronger effect = lower value; DMSO median 0, no signal -100; GFP signal change (wild-type ribosome), % (concentration not given with the values); 1.6% of 350,000 active;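 active = significant combined selectivity score with lowered wild-type GFP, culture density cut under 30%, mutant RFP and density less affected; inactive = any of these conditions unmet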; also: one replicate is shown; some compounds called inactive have numbers as strong as hits
Ecoli rRNA inh OD600: recorded beside Ecoli rRNA inh, whose call it bears; OD600 change, %; measured here: OD600 growth;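 optical density of the mix in the first replicate; 0 = DMSO median and -100 = no signal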
Ecoli rRNA inh RFP: also measured in Ecoli rRNA inh; calls as there; RFP signal change, %; measured here: RFP humanized mutant strains;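 first replicate; 0 = DMSO median and -100 = no signal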
* marks the source's active call; other numbers are inactive results; · = no result given; & = joins results of further samples. Not all compounds are listed. The share of hits here may be higher or lower than overall.

SMILES	Ecoli growth	Ecoli rRNA inh	Ecoli rRNA inh OD600	Ecoli rRNA inh RFP
CO[C@H]1CN(C)C(=O)c2cc(NC(=O)Nc3ccc(Cl)cc3)ccc2OC[C@H](C)N(C)C[C@@H]1C	·	-4	-4	6.6
COC(=O)C[C@H]1CC[C@@H]2[C@@H](COc3ccc(NC(=O)c4ccc(OC)cc4)cc3C(=O)N2C)O1	·	-6	-8	4.2
COc1ccccc1NC(=O)N1C[C@@H]2N[C@H](C1)C2c1ccc(-c2ccc(C#N)cc2)cc1 (stereo partly drawn)	·	-3&-3	-5&-1	0.0&1.2
Cc1cccc(NC(=O)Nc2ccc3c(c2)C(=O)N(C)[C@H]2CC[C@H](CC(=O)NCc4ccccc4Cl)O[C@@H]2CO3)c1	·	-1	1	3.4
CCC(=O)N1[C@H](C(=O)NCc2ccc(F)cc2)[C@@H](CO)[C@@H]2Cn3c(ccc(C4=CCCC4)c3=O)[C@@H]21	·	2	12	0.8
C/C=C/c1ccccc1[C@H]1[C@@H](CO)N(c2nc(CC)cs2)[C@H]1C#N	·	-13	-40	-3.3
C[C@@H]1CN(C)C(=O)c2cccc(N)c2O[C@@H]1CN(C)C	·	2	6	-0.2
CCCNC(=O)N1[C@H](CO)[C@H](c2ccccc2)[C@H]1CNC(=O)C1CCC1	·	-1	2	-0.1
CC(C)NC(=O)N1CC2(C1)[C@H](c1ccccc1)[C@H](CO)N2C(=O)C1CC1	·	0	-2	-2.7
C[C@H](CO)N1C[C@H](C)[C@@H](CN(C)C)Oc2ncc(C#CC3CCCCC3)cc2C1=O	·	4	10	0.8
COc1ccc2c3c([nH]c2c1)[C@@H](CO)N(C(=O)Nc1ccc(F)cc1)CC31CN(C(=O)Cc2ccccc2)C1	·	-5	-40	30
COc1ccc(NC(=O)N2[C@@H]3CNC[C@H]2C3c2ccc(-c3ccc(F)cc3)cc2)cc1 (stereo partly drawn)	·	-48	-64	-5.9
C[C@H](CO)N1C[C@H](C)[C@@H](CN(C)Cc2cccc(F)c2)Oc2ncc(-c3cccc(F)c3)cc2C1=O	·	-2	-8	2.1
CN1C(=O)c2cc(NC(=O)Nc3ccccc3)ccc2OC[C@@H]2O[C@H](CC(=O)O)CC[C@@H]21	·	1	1	0.7
C[C@H]1CN([C@@H](C)CO)S(=O)(=O)c2ccc(-c3ccc(C(=O)N(C)C)cc3)cc2O[C@@H]1CN(C)C(=O)C1CC1	·	-2	-3	0.7
COc1ccc(NC(=O)N(C)C[C@@H]2OCCCC[C@@H](C)Oc3ccc(NS(=O)(=O)c4ccc(C)cc4)cc3C(=O)N([C@@H](C)CO)C[C@H]2C)cc1	·	1	-3	-3.1
CCCC#Cc1ccc([C@@H]2[C@H]3CN(C(=O)c4cccnc4)CC(=O)N3[C@H]2CO)cc1	·	-2	2	0.5
Cc1cc(C(=O)Nc2cccc3c2O[C@H](CN(C)Cc2ccc(Oc4ccccc4)cc2)[C@H](C)CN([C@H](C)CO)C3=O)n(C)n1	·	-10	-17	3.0
COc1ccc(-c2ccccc2[C@H]2[C@@H](C#N)N(C(=O)C3CCCC3)[C@H]2CO)cc1	·	-11	-23	-1.3
O=C(C1CC1)N1CC(=O)N2[C@@H](CO)[C@@H](c3ccc(Br)cc3)[C@@H]2C1	·	6	23	-1.3
C[C@H]1CCCCO[C@H](CN(C)Cc2ccc(C(=O)Nc3ccccc3N)cc2)[C@@H](C)CN([C@@H](C)CO)C(=O)c2cc(N(C)C)ccc2O1	·	2	2	2.6
COc1ccc(NC(=O)N(C)C[C@H]2OCc3ccccc3-c3ccccc3C(=O)N([C@@H](C)CO)C[C@@H]2C)cc1	·	0	7	-0.6
CCCC(=O)Nc1ccc2c(c1)C(=O)N(C)C[C@H](OC)[C@@H](C)CN(CC1CCOCC1)[C@@H](C)CO2	·	2	6	-1.2
CCCN(C)C[C@H]1OCCCC[C@@H](C)Oc2ccc(NC(=O)c3ccncc3)cc2C(=O)N([C@@H](C)CO)C[C@H]1C	·	0	4	0.3
CN1c2ccc(-c3cccc(C#N)c3)cc2[C@H]2[C@H](CCN2C(=O)C2CCCCC2)[C@H]1CO	·	-19	-44	29
CC(=O)Nc1ccc2c(c1)CC(=O)N(C)C[C@H](C)[C@@H](CN(C)C)O2	·	0	5	-0.4
O=C(C1CCCC1)N1CC(=O)N2[C@H](CO)[C@H](c3ccc(-c4ccccc4F)cc3)[C@@H]2C1	·	-3	-6	-0.6
COc1ccc2c3c([nH]c2c1)[C@H](CO)N(Cc1nccs1)CC31CN(C(=O)C2CCOCC2)C1	·	1	3	1.3
CC(C)NC(=O)Nc1ccc2c(c1)C(=O)N([C@@H](C)CO)C[C@H](C)[C@@H](CN(C)C(=O)C1CCCCC1)OCCCC[C@H](C)O2	·	-2	-4	0.6
O=C(Cc1cccnc1)N1CC2(C1)[C@H](c1ccccc1)[C@H](CO)N2C(=O)C1CCC1	·	1	0	-1.5
CCCC#Cc1ccc([C@H]2[C@@H](CO)N(C(C)=O)[C@@H]2CNC(=O)C2CCC2)cc1	·	2	4	1.3
C[C@@H]1CN([C@H](C)CO)C(=O)c2ccccc2-c2ccccc2CO[C@@H]1CN(C)C(=O)c1cc(Cl)cc(Cl)c1	·	0	-1	1.5
CO[C@H]1CN(C)C(=O)c2cc(NC(=O)C3CCOCC3)ccc2OC[C@@H](C)N(C(=O)c2ccccc2)C[C@@H]1C	·	4	7	1.2
O=C(NC1CCCC1)N1CC(=O)N2[C@H](CO)[C@H](c3ccc(-c4ccc(F)cc4)cc3)[C@@H]2C1	·	0	-17	0.5
O=C(C[C@H]1CC[C@H]2[C@@H](COC[C@H](O)CN2S(=O)(=O)c2cccc(Cl)c2)O1)Nc1ccc(-c2ccccc2)cc1	·	4	13	6.9
Cc1ccc(S(=O)(=O)N[C@@H]2CC[C@@H](CCn3cc(C4CCCC4)nn3)O[C@H]2CO)cc1	·	-2	-8	0.9
CNC[C@@H]1Oc2ccc(NC(=O)NC3CCCCC3)cc2CC(=O)N([C@H](C)CO)C[C@@H]1C	·	5	8	2.3
COc1ccc2c3c([nH]c2c1)[C@H](CO)N(CC1CC1)CC31CN(C(=O)c2ccc(F)cc2)C1	·	-2	6	-1.6
Cc1noc(C)c1NC(=O)Nc1ccc2c(c1)C(=O)N([C@@H](C)CO)C[C@H](C)[C@H](CN(C)S(=O)(=O)c1ccc(F)cc1)OCCCC[C@@H](C)O2	·	-1	14	1.0
C/C=C/c1cnc2c(c1)C(=O)N([C@@H](C)CO)C[C@@H](C)[C@@H](CN(C)Cc1ccccc1F)O2	·	2	-1	-1.9
COc1ccc2c3c([nH]c2c1)[C@@H](CO)N(C(=O)Nc1c(C)noc1C)CC31CN(CC2CC2)C1	·	3	9	-2.7
CO[C@H]1CN(C)C(=O)c2cc(NC(C)=O)ccc2OC[C@@H](C)N(Cc2cccnc2)C[C@H]1C	·	1	-4	-0.1
COCC(=O)Nc1ccc2c(c1)OC[C@H](C)N(Cc1cncnc1)C[C@H](C)[C@@H](OC)CN(C)C2=O	·	3	2	-1.6
CC(=O)Nc1ccc2c(c1)CC(=O)N(C)C[C@@H](C)[C@@H](CN(C)C(C)=O)O2	·	1	1	-0.1
CC(C)CC#Cc1ccc2c(c1)O[C@H](CN(C)Cc1ccc3c(c1)OCO3)[C@H](C)CN([C@H](C)CO)S2(=O)=O	·	1	-2	-0.3
C/C=C/c1ccc([C@H]2[C@@H](CO)N(c3nc(C)c(C)s3)[C@@H]2CNCC(C)C)cc1	·	-1	-15	2.4
O=S(=O)(c1cccc(F)c1)N1[C@@H]2CNC[C@H]1C2c1ccc(/C=C/c2ccccc2)cc1 (stereo partly drawn)	·	-5&-46	-30&-67	20&-13
O=C(c1ccc(F)cc1)N1CC(=O)N2[C@H](CO)[C@H](c3ccc(-c4ccccc4F)cc3)[C@H]2C1	·	1	-7	-0.4
CO[C@@H]1CN(C)C(=O)c2cc(NS(C)(=O)=O)ccc2OC[C@@H](C)NC[C@@H]1C	·	0	2	0.3
COc1cccc(C#Cc2ccc3c(c2)[C@H]2[C@H](CCN2S(=O)(=O)c2ccc(C)cc2)[C@@H](CO)N3)c1	·	-4	2	3.0
CC(C)NC(=O)Nc1ccc2c(c1)C(=O)N([C@H](C)CO)C[C@H](C)[C@@H](CN(C)C(=O)C1CCCCC1)OCCCC[C@@H](C)O2	·	-1	4	1.5
COC(=O)C1=C(C)N(Cc2ccco2)C(=O)NC1c1ccccc1 (stereo not drawn)	0.68	·	·	·
COC(=O)[C@@]12CCCCN1C(c1ccc(-c3ccc(C(C)=O)cc3)cc1)C1C(=O)N(C)C(=O)C12 (stereo partly drawn)	0.71	·	·	·
O=C(C1=CC(c2ccc(C(F)(F)F)cc2)CC(OCCCCO)O1)N1CCN(Cc2ccc3c(c2)OCO3)CC1 (stereo not drawn)	0.65&0.69	·	·	·
CCC(C)C(NC(=O)OC(C)(C)C)c1cn(C(Cc2ccc(O)cc2)C(=O)N2CCN(C(=O)OC(C)(C)C)CC2)nn1 (stereo not drawn)	0.68	·	·	·
O=C(c1cccs1)N1CCN(CC=Cc2ccccc2)CC1	0.67	·	·	·
CC(C)CC(NC(=O)Nc1cccc(Cl)c1)C(=O)O (stereo not drawn)	0.69	·	·	·
COC(=O)C1CC2CCC(O)CC2N1Cc1ccc(N2CCN(C)CC2)cc1 (stereo not drawn)	0.67	·	·	·
O=C(C1=CC(c2coc3ccccc3c2=O)CC(OCCCCO)O1)N1CCN(Cc2ccc3c(c2)OCO3)CC1 (stereo not drawn)	0.71&0.68	·	·	·
CCCCN1C(=N)N(C(C)CN2CCCC2CN2C(N)=NCC2CC(C)C)CC1Cc1ccccc1 (stereo not drawn)	0.69	·	·	·

Brought forward from above: 5 compounds, followed by the next part.
SMILES	Ecoli growth	Ecoli rRNA inh	Ecoli rRNA inh OD600	Ecoli rRNA inh RFP
O=C(c1cccs1)N1CCN(CC=Cc2ccccc2)CC1	0.67	·	·	·
CC(C)CC(NC(=O)Nc1cccc(Cl)c1)C(=O)O (stereo not drawn)	0.69	·	·	·
COC(=O)C1CC2CCC(O)CC2N1Cc1ccc(N2CCN(C)CC2)cc1 (stereo not drawn)	0.67	·	·	·
O=C(C1=CC(c2coc3ccccc3c2=O)CC(OCCCCO)O1)N1CCN(Cc2ccc3c(c2)OCO3)CC1 (stereo not drawn)	0.71&0.68	·	·	·
CCCCN1C(=N)N(C(C)CN2CCCC2CN2C(N)=NCC2CC(C)C)CC1Cc1ccccc1 (stereo not drawn)	0.69	·	·	·
CCN1C(=O)C2C(c3ccc(Cl)cc3)N3C(=O)CN(Cc4ccccc4)C(=O)[C@@]3(C)C2C1=O (stereo partly drawn)	0.69	·	·	·
COC(=O)C1=C(C)N(Cc2ccco2)C(=O)NC1c1ccc(Br)cc1 (stereo not drawn)	0.7	·	·	·
CN(C)c1ccc(O)c2c1CC1CC3C(N(C)C)C(=O)C(C(N)=O)=C(O)[C@]3(O)C(=O)C1=C2O (stereo partly drawn)	0.071*	·	·	·
CCOC1OC(C(=O)NCc2nc3ccccc3[nH]2)=CC(c2ccc(C(F)(F)F)cc2)C1CCCO (stereo not drawn)	0.68&0.69	·	·	·
NC(=NOC(=O)CCCOc1ccccc1)c1ccc(Br)cc1	0.73	·	·	·
C=CC1C(OC2OC(CO)C(O)C(O)C2O)OC=C2C(=O)OCC[C@]21O (stereo partly drawn)	0.64	·	·	·
CCN1C(=O)C2C(c3ccc(-c4ccc(Cl)c(Cl)c4)cc3)N[C@@](Cc3ccccc3)(C(=O)OC)C2C1=O (stereo partly drawn)	0.75	·	·	·
COc1ccc(C=CC2=NC(=CN(C)C)C(=O)O2)cc1	0.71	·	·	·
CCOc1ccc(NC(=O)C(NC(=O)c2ccccc2)C(C)CC)cc1 (stereo not drawn)	0.72	·	·	·
Cc1ccc(C2C3C(=O)N(C)C(=O)C3[C@]3(C)C(=O)N(Cc4ccccc4)CC(=O)N23)o1 (stereo partly drawn)	0.69	·	·	·
CC(NC(=O)c1[nH]cnc1C(=O)Nc1ccc(CNC(=O)OC(C)(C)C)cc1)C(=O)OCc1ccccc1 (stereo not drawn)	0.71	·	·	·
NC(=O)C1CC2(CC(c3cccc(NC(=O)COc4ccc(Cl)cc4)c3)=NO2)CN1C(=O)c1ccccc1C(=O)c1ccccc1 (stereo not drawn)	0.72	·	·	·
CC1CC2OC(=O)[C@]3(C)C2C(OC3(C)O)[C@]2(C)C(=O)C=CC12 (stereo partly drawn)	0.68	·	·	·
O=C(C=Cc1cn(-c2ccccc2)nc1-c1ccc2c(c1)OCCO2)NCCO	0.7	·	·	·
CN(C)c1ccc(C(c2nnnn2C(C)(C)C)N2CCc3ccccc3C2)cc1 (stereo not drawn)	0.71	·	·	·
CN1CC2C(c3ccc(C(F)(F)F)cc3)C3(c4ccccc4)CC2(C3)C1c1ccccc1 (stereo not drawn)	0.71	·	·	·
O=C(NC1CC1)C1=CC(C2CCCCC2)CC(OCCCCO)O1 (stereo not drawn)	0.7&0.71	·	·	·
CC(O)C(C(=O)N1CCN(C(=O)OC(C)(C)C)CC1)n1cc(CCCCNC(=O)OC(C)(C)C)nn1 (stereo not drawn)	0.7	·	·	·

Shown with each value named: entries from further up
CC1CC2OC(=O)[C@]3(C)C2C(OC3(C)O)[C@]2(C)C(=O)C=CC12 (stereo partly drawn)
  Ecoli growth: 0.68
  Ecoli rRNA inh: ·
  Ecoli rRNA inh OD600: ·
  Ecoli rRNA inh RFP: ·

Cc1ccc(C2C3C(=O)N(C)C(=O)C3[C@]3(C)C(=O)N(Cc4ccccc4)CC(=O)N23)o1 (stereo partly drawn)
  Ecoli growth: 0.69
  Ecoli rRNA inh: ·
  Ecoli rRNA inh OD600: ·
  Ecoli rRNA inh RFP: ·
